Screening data as filed in PubChem BioAssay.
Cruzain inh noDet = blocks cruzain activity in detergent-free assay; P25779; purified cruzain, Z-FR-AMC fluorescence, no detergent; Potency, µM, for the others: max response, negative = inhibition, usual class: inhibitors; 200,000 tested, 2.3% active;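 further: plate controls were enzyme without inhibitor for no effect and buffer without enzyme for full effect; nearly all actives have a fitted effect of over 40% in size; top concentration of the series not given in the record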
Target sequence (P25779 123-467 limits assumed): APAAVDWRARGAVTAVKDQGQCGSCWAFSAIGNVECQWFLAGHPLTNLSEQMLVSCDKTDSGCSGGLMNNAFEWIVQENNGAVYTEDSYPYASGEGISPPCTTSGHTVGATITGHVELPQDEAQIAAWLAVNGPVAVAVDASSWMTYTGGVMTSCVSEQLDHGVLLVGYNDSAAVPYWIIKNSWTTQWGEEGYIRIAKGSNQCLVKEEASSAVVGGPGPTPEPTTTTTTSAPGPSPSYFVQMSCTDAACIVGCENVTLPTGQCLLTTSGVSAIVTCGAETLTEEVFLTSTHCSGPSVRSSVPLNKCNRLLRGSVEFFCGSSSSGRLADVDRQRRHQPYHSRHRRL
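Purified cruzain at 1.5 nM, pre-incubated 15 min with compound at room temperature in 100 mM sodium acetate pH 5.5, 5 mM DTT, 0.00005% Triton X-100. Reaction started with 2 uM Z-FR-AMC; AMC fluorescence increase over 60 s gives rate.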
SARS PLP yeast = inhibitors of SARS-CoV papain-like protease in yeast; Potency, µM (highest dose often 32.9 µM), without a hit: at the top dose activity, positive = growth rescue; 330,000 tested, 0.19% active; AID 485353; S. cerevisiae expressing SARS-CoV PLpro, growth rescue; control for the full effect not named in the record; active means well fitted rising curve with a large enough effect; inconclusive means small, poorly fitted or top-dose-only effect; inactive means no such curve, though single readings can be large or run the other way; further: 0% is about no effect; nearly all actives have a fitted effect of over 55% in size; growth read by luminescence after 48 h
Cruzain Triton = cruzain (T. cruzi) inhibition with detergent; Potency, µM, without a hit: max response, negative = inhibition, most hits filed as inhibitors; purified cruzain, Z-FR-AMC fluorescence, 0.01% Triton; 200,000 tested, 0.43% active; AID 1478; P25779;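 further: plate controls were neutral wells for no effect and buffer without enzyme for full effect; nearly all actives have a fitted effect of over 40% in size; top concentration of the series not given in the record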
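15 min RT preincubation of 1.5 nM cruzain with compound, then 2 uM Z-FR-AMC added; kinetic AMC fluorescence, 60 s delta. Triton X-100 0.01%, pH 5.5.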
MARV entry inh = blocks Marburg virus binding to or entry into cells; Marburg virus pseudotyped entry inhibition, cell reporter; control for the full effect not named in the record; about a third of the inactives were read at about 46 µM; Potency, µM (doses to about 37.8 µM), for the others: at the top dose activity change, negative = inhibition, actives largely listed as inhibitors; 300,000 tested, 1.8% active; AID 540276; active = well fitted inhibition curve with a large enough effect; inconclusive = small, poorly fitted or top-dose-only effect, or effect the other way; inactive = flat fitted curve, though single readings scatter; tested in HEK293 cells; about a fifth of its hits are not listed in these tables; further: on the % scale 0 is the no-effect control and ±100 the full control effect; luciferase read-out
LASV entry inh = Lassa virus entry inhibition; Potency, µM (doses to about 37.9 µM), for the others: at the top dose activity change, negative = inhibition, actives largely listed as inhibitors; Lassa virus pseudotype entry inhibition, cell reporter; control for the full effect not named in the record; AID 540256; 300,000 tested, 1.2% active; active means well fitted inhibition curve with a large enough effect; inconclusive means small, poorly fitted or top-dose-only effect, or effect the other way; inactive means flat fitted curve, though single readings scatter; tested in HEK293 cells; further: on the % scale 0 is the no-effect control and ±100 the full control effect; nearly all actives have a fitted effect of over 50% in size; luciferase read-out
NS1 function inh = blocks influenza NS1 protein function; AID 2326; Potency, µM (doses to about 46.1 µM), for inactives: top-dose activity, positive = more growth; 270,000 tested, 0.4% active; S. cerevisiae slowed by influenza A NS1, growth recovery by OD600; active means well fitted rising curve with a large enough effect; inconclusive means small, poorly fitted or top-dose-only effect; inactive means no such curve, though single readings can be large or run the other way; further: nearly all actives have a fitted effect of over 50% in size
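Recovery from NS1-induced slow growth read by OD600 in budding yeast switched to galactose assay medium (pH 6.0, -URA) at 1:100 dilution. Compound 23 nl per well; the matching strain lacking NS1 serves as control.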
RE007 growth inh = less growth of the S. pombe RE007 Vpr strain. S. pombe RE007 Vpr strain, BacTiter-Glo ATP luminescence, 24 h; control for the full effect not named in the record. Potency, µM (highest dose often 92.2 µM), inactives show at the top dose activity change, negative = less growth. 360,000 tested, 0.21% active; active = well fitted falling curve with a large enough effect; inconclusive = small, poorly fitted or top-dose-only effect; inactive = no such curve, though single readings can be large or run the other way;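 further: on the % scale 0 is the no-effect control and ±100 the full control effect; nearly all actives have a fitted effect of over 50% in size; the assay follows cell death caused by Vpr and the record does not say whether a fall means rescue or toxicity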
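Fission yeast strain RE007, carrying one chromosomally integrated HIV-1 vpr copy, was seeded at OD 0.01 in PMG+AL medium with 23 nL pinned compound. After 24 h at 30 °C and 99% humidity, viability was read by BacTiter-Glo luminescence.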
2A StopGo = FMDV 2A StopGo reporter, luciferase signal; Potency, µM (top dose mostly 57.9 µM), for inactives: at the highest dose signal change, negative = less light; 410,000 tested, 1.2% active; human cells with a luciferase reporter of 2A StopGo recoding; control for the full effect not named in the record; AID 1159524; active = well fitted falling curve with a large enough effect; inconclusive = small, poorly fitted or top-dose-only effect; inactive = no such curve, though single readings can be large or run the other way; tested in HEK293T cells; further: on the % scale 0 is the no-effect control and ±100 the full control effect; nearly all actives have a fitted effect of over 45% in size; luciferase light after 4 h
Active calls of the source: *; ? = inconclusive; · = not tested or not shown; & = joins results of further samples; [ ] = another dose, or the depositor's remark. Unless noted, the call rests on the fitted dose curve; in most records, active means well fitted curve in the direction sought with a large enough effect; inconclusive means small, poorly fitted or top-dose-only effect, or another doubt; inactive means no such curve, though single readings can be large; an effect the other way counts as inactive or inconclusive. Potency means the concentration at half of the fitted maximal effect.

SMILES	Cruzain inh noDet	SARS PLP yeast	Cruzain Triton	MARV entry inh	LASV entry inh	NS1 function inh	RE007 growth inh	2A StopGo
O=C(Oc1cccc(/C=N/Nc2nc(N3CCOCC3)nc(N3CCOCC3)n2)c1)c1ccco1	?	-19%	-5.6%	?	0%	-12%	14%	?
O=C(O)CC1=C(O)C(=O)N(c2ccccc2)C1c1ccc(Cl)cc1 (stereo not given)	-2%	5%	-2.5%	0%	-2%	15%	13%	5%
CCOC(=O)Cc1csc(NC(=O)/C=C/c2ccccc2Cl)n1	·	-2%	·	?	?	-7%	4%	-36%
O=C(NCCC1=CCCCC1)c1cnc2n(c1=O)CCS2	-9%	22%	-5.2%	2%	-9%	-9%	9%	61%[activator]
O=C(CCCO)NNc1c2ccccc2nc2ccccc12	·	-1%	·	8%[46.1 µM]	-5%	-3%	-1%	-3%
CC(C)OC(=O)C1Cc2ccccc2CN1S(=O)(=O)c1cccs1 (stereo not given)	·	1%	·	?	?	4%	-10%	39%[activator]
CCOC(=O)C1CCCN(CC(=O)/C=C2/N(C)c3ccccc3C2(C)C)C1 (stereo not given)	-3%	-6%	-9.6%	?	-21%	-1%	-4%	?
CCOC(=O)c1ccc(NC(=O)N2CCN(CCc3ccccc3)CC2)cc1	-1%	-1%	-0.1%	?	1%	-4%	-6%	8%
O=C(NCC(c1ccc(Cl)cc1)N1CCCCC1)c1ccccc1 (stereo not given)	-6%	·	-0.8%	?	-19%[46.1 µM]	·	·	2%
O=C(c1ccc2c(c1)N(Cc1ccccc1)C(=O)c1ccccc1S2(=O)=O)N1CCN(c2ccccc2)CC1	18%	·	7.2%	19%[46.1 µM]	1%[46.1 µM]	·	·	-10%
Cc1ccc(C)c(OCC(=O)Nc2ccc(S(=O)(=O)Nc3ccccn3)cc2)c1	-7%	-10%	1.2%	1%	-1%	-9%	-6%	62%[activator]
Cc1cccc(N2CC(C(=O)OCc3ccc([N+](=O)[O-])cc3)CC2=O)c1 (stereo not given)	·	0%	·	5%[46.1 µM]	12%	-20%	-3%	3%
COc1ccccc1OCC(=O)Nc1cc(Cl)ccc1Oc1ccccc1	-5%	0%	-4.4%	1%	12%	-2%	-7%	-13%
COc1ccccc1C(=O)COC(=O)/C=C/c1ccccc1	·	-7%	·	-8%	14%	-35%	-18%	16%
Cc1cccc(NC(=O)[C@H](NC(=O)[C@@H]2Cc3ccccc3CN2)c2ccccc2)c1	·	0%	·	·	·	20%	-18%	19%
c1ccc(Nc2ncnc3c2oc2ccccc23)cc1	-10%	·	-7.0%	-18%[46.1 µM]	16%	-19%	-5%	15%
O=C(CNC(=O)c1cccs1)N/N=C/c1ccc(Cl)cc1	·	-2%	·	6%[46.1 µM]	15%	-10%	-5%	37%[activator]
CCOC(=O)c1cc2c(=O)n3ccccc3nc2n(CC2CCCO2)c1=NC(=O)c1ccccc1Br (stereo not given)	-4%	·	-0.5%	5%[46.1 µM]	12%[46.1 µM]	·	·	25%
Cc1ccc(N=C2NC(=O)C(CC(=O)O)S2)cc1 (stereo not given)	3%	1%	3.9%	11%	-1%	4%	11%	19%
CC(C)c1ccc(C(=O)OC2CCOC2=O)cc1 (stereo not given)	·	17%	·	?	-9%[46.1 µM]	?	-3%	9%
COc1ccc(C(=O)OC(C)C(=O)Nc2cc(C(F)(F)F)ccc2Cl)c(OC)c1OC (stereo not given)	21%	-1%	-12%	?	?	-12%	6%	0%
Cc1ccc(-n2ncc(C(=O)N3CCN(c4cccc(C)c4C)CC3)c2C2CCNCC2)c(C)c1	-5%	·	-2.5%	·	-22%[46.1 µM]	·	·	-10%
CCOC(=O)CSc1nc2sc3c(c2c(=O)n1-c1ccccc1)CCC(C(C)(C)C)C3 (stereo not given)	1%	·	-1.9%	30%[46.1 µM]	-19%[46.1 µM]	·	·	-24%
CC(C)CCOC(=O)/C(=C/c1ccco1)NC(=O)/C=C/c1ccccc1	-27%	-14%	-21%	1%	-10%	4%	-9%[3.69 µM]	-11%
COC(=O)c1c(O)c2c([nH]c1=O)CCCC2	1%	6%	6.8%	21%	0%	3%	-1%	-3%
CCN=c1scc(C)n1/N=C/c1ccsc1	-3%	2%	-4.2%	-1%	-12%	-6%	-6%	55%[activator]
O=C(CCOc1ccccc1)Nc1ccnn1C1CCN(CCc2ccccc2)CC1	·	-4%	·	·	·	-9%	-1%	9%
Cc1ccc(S(=O)(=O)N(C)C)cc1NC(=S)Nc1cccc2ccccc12	·	0%	·	-1%[46.1 µM]	16%[46.1 µM]	24%	0%	4%
Cc1ccccc1NC(=O)NC1(C(=O)N2CCC(O)CC2)CCCCC1	·	-1%	·	16%[46.1 µM]	10%[46.1 µM]	17%	-3%	48%
Cc1nn(C)c(C)c1CN(Cc1nc(-c2cc(F)ccc2F)oc1C)C1CC1	·	0%	·	?	?	-2%	?	?
CC(C)(C)[C@H]1CCC(=O)N([C@H](CSc2ccccc2)Cc2ccccc2)CC1	·	-2%	·	·	·	21%	1%	-7%
COc1cccc(NC(=O)CN(Cc2ccccc2)S(=O)(=O)c2ccc3nc(C)sc3c2)c1	28%	·	-5.8%	·	-1%[46.1 µM]	·	·	-15%
CCC(CC)NC(=O)CC(c1ccccc1)c1ccccc1	·	0%	·	2%	?	1%	1%	-25%
Cc1nn(C(C)(C)C)c(NC(=O)c2ccccc2)c1C#N	·	-1%	·	·	·	6%	-3%	-22%
CCc1ccc(S(=O)(=O)ON2C(=O)c3ccccc3C2=O)cc1	·	0%	·	21%[14.2 µM]	3%	6%	-9%	0%
CCCCOCCCN1CC(=O)N2[C@@H](Cc3c([nH]c4ccccc34)C2(C)C)C1=O	·	-1%	·	-6%	?	1%	3%	?
O=C(NCc1ccccc1)C12CN(Cc3ccccc3)CC1C(c1ccc([N+](=O)[O-])cc1)=NO2 (stereo not given)	?	-4%	2.5%	·	·	0%	11%	-5%
COc1ccc(-c2oc3ncn4nc(COc5c(C)cccc5C)nc4c3c2-c2ccc(OC)cc2)cc1	?	·	-2.0%	·	10%[46.1 µM]	·	·	-19%
Cc1cc(C(=O)Nc2ccccc2N2CCOCC2)ccc1[N+](=O)[O-]	-7%	-6%	-1.0%	-4%	-8%	-6%	-26%	-27%
CCN(CC)CCN(C(=O)c1cc(Cl)sc1Cl)c1nc2cc3c(cc2s1)OCO3	·	?	·	-6%	18%	-4%	2%	2%
COc1ccc(S(=O)(=O)NNC(=O)c2ccccc2-n2cccc2)cc1	·	1%	·	20%[46.1 µM]	-8%	3%	-4%	23%
Cc1sc2c(c1C)C(O)=C(C(=O)Nc1ccccc1)S(=O)(=O)N2C	·	-3%	·	?	-7%	-3%	10%	-32%
Cc1cc(S(=O)(=O)Nc2ccc(C(=O)NCC3(N4CCCCC4)CCCCC3)cc2)ccc1F	·	5%	·	11µM*	?	·	-11%	-23%
NC(=O)CSCc1ccc(Br)cc1	4%	-4%	5.8%	1%	-3%	0%	2%	15%
N/C(=N\c1nc2c(c(=O)[nH]1)CCC2)Nc1cccc2ccccc12	4%	6%	4.0%	?	-10%	1%	-13%	-12%
O=C(CSc1nnnn1-c1ccc2c(c1)CCC2)Nc1ccc2c(c1)OCCO2	?	-3%	-1.5%	10%	-8%	-40%	-8%	16%
O=S(=O)(c1ccc(Br)cc1)N1CCN(c2cc(-c3ccccc3)nc3ncnn23)CC1	?	-8%	1.9%	?	?	-41%	-12%	-17%
N#Cc1ccc(-c2cccnc2)nc1SCC(=O)c1ccccc1	·	-3%	·	?	7%	1%	13%	54%[activator]
CCc1cc(=O)oc2c3c(cc(OCC(=O)NC4CC4)c12)OC(C)(C)CC3	·	-1%	·	·	·	-5%	13%	-20%
CCOc1ccc(-c2c(C(=O)N/N=C/c3ccc(OC(C)C)cc3)nnn2-c2nonc2N)cc1	-17%	21%	-16%	-16%	-5%	9%	·	-13%

By substructure, the compounds so far containing a thiophene ring, fused or not
SMILES	Cruzain inh noDet	SARS PLP yeast	Cruzain Triton	MARV entry inh	LASV entry inh	NS1 function inh	RE007 growth inh	2A StopGo
CC(C)OC(=O)C1Cc2ccccc2CN1S(=O)(=O)c1cccs1 (stereo not given)	·	1%	·	?	?	4%	-10%	39%[activator]
O=C(CNC(=O)c1cccs1)N/N=C/c1ccc(Cl)cc1	·	-2%	·	6%[46.1 µM]	15%	-10%	-5%	37%[activator]
CCOC(=O)CSc1nc2sc3c(c2c(=O)n1-c1ccccc1)CCC(C(C)(C)C)C3 (stereo not given)	1%	·	-1.9%	30%[46.1 µM]	-19%[46.1 µM]	·	·	-24%
CCN=c1scc(C)n1/N=C/c1ccsc1	-3%	2%	-4.2%	-1%	-12%	-6%	-6%	55%[activator]
CCN(CC)CCN(C(=O)c1cc(Cl)sc1Cl)c1nc2cc3c(cc2s1)OCO3	·	?	·	-6%	18%	-4%	2%	2%
Cc1sc2c(c1C)C(O)=C(C(=O)Nc1ccccc1)S(=O)(=O)N2C	·	-3%	·	?	-7%	-3%	10%	-32%

(further entries)
SMILES	Cruzain inh noDet	SARS PLP yeast	Cruzain Triton	MARV entry inh	LASV entry inh	NS1 function inh	RE007 growth inh	2A StopGo
CNC(=S)N(CCc1c(C)[nH]c2ccc(C)cc12)Cc1ccco1	-3%	15%	-6.1%	-40%	-33%	6%	13%	-17%
CCC(=O)N(Cc1c(C)nn(-c2ccccc2)c1Cl)c1ccc(Cl)cc1	?	?	-8.9%	-41%	?	-27%	14%	-14%
O=C(CCc1nnc2ccc(NCc3ccco3)nn12)N1CCCCC1	·	27%	·	·	·	16%	4%	-8%
COc1ccc(Br)cc1C1CC(=O)C(C)C(c2cc(Br)ccc2OC)N1 (stereo not given)	·	1%	·	-13%	-5%	-2%	-7%	-13%
CCn1c(=O)cc(SCC(=O)N2CCN(C3CCCCC3)CC2)c2ccccc21	1%	-2%	-3.5%	-3%&8%	13%	9%	-9%	-16%
